Mtb hypoxia rep: inhibitors of hypoxia-regulated fluorescent reporter in Mycobacterium tuberculosis; M. tuberculosis hypoxia-regulated fluorescent reporter, fluorescence; fluorescence inhibition, % (no concentration beside the values); 300,000 tested, 0.1% active; AID 1159583;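 active means 35 to 45% if threefold the growth effect, above 45% if 1.5-fold the growth effect; inactive means the rest, general growth blockers included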;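 further: wells of about 50 µL received 100 nL stock; 0% = vehicle wells and 100% = reference inhibitor wells; whole bacteria with a GFP reporter of the hypoxia response; strong numbers were not always called active; many hits fall short of the cut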
Autofluor counter: counter-screen for toxin protease inhibitors: compound fluorescence. 360,000 tested, 3.1% active. compound autofluorescence counterscreen, microsphere flow cytometry; active compounds read high. fluorescence intensity (test concentration not listed);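 active means at least 3 SD above the mean of all compounds, about 16000 in these data; inconclusive means too few beads counted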;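 further: 100 nL of 1 mM stock went into each well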
PrP UTR inh: suppresses PrP 5' UTR mRNA reporter expression. cell-based PrP 5' UTR mRNA reporter, plate reader. inhibition, % (test concentration not listed). 340,000 tested, 0.35% active;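 active means every replicate at 50% or more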;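 further: 0 = median of the neutral control wells; tested in H4 reporter cells; numbers are from one replicate; inactives centre near -14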
Sa ugtP lethal: kills S. aureus RN4220 lacking UgtP; S. aureus RN4220 ugtP deletion, OD600 growth, 16 h; some inactives read as strong as hits; growth inhibition, % (concentration not given with the values); 330,000 tested, 0.54% active; AID 1259309;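 active means z-score under -3 and OD600 up to 0.15 on both plates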;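 further: plate controls were untreated wells for no effect and antibiotic for full effect; wells of about 80 µL received 100 nL stock; the first replicate is given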
BJeLR lethal: BJeLR cell viability loss; BJeLR (HRASV12) viability, CellTiter-Glo ATP luminescence, 48 h; reference of the scale not given here; inhibition, % (no concentration beside the values); 300,000 tested, 0.17% active;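 active means replicate mean above 50%; inconclusive means above 50% but judged a plate artefact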;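 further: 50 nL library stock added to about 25 µL; numbers are from one replicate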
RN4220 kill: kills Staphylococcus aureus RN4220; inhibition, % (no concentration beside the values); 330,000 tested, 0.33% active; AID 1259311; S. aureus RN4220 growth, OD600, 16 h;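 active means z-score of -3 or lower and OD600 up to 0.18 on both plates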;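 further: plate controls were untreated cells for no effect and reference antibiotic for full effect; stock transfer was 100 nL into about 80 µL; one replicate is shown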
Mtb hypoxia rep growth: recorded beside Mtb hypoxia rep, whose call it bears; growth inhibition, %; measured here: M. tuberculosis growth (absorbance);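 0% = vehicle and 100% = reference antibiotic; read after six days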
Active calls of the source: *; ? = inconclusive; . = no result given; & = joins results of further samples. Compounds were not picked by outcome (roughly 4% active in at least one column).

Molecule,PrP UTR inh,RN4220 kill,Mtb hypoxia rep,Mtb hypoxia rep growth,Sa ugtP lethal,BJeLR lethal,Autofluor counter
Cc1cc(C)n2c(SCC(=O)Nc3ccccc3)nnc2n1,-9,5.9,.,.,5,10,4546
OCCNCCCCOc1cccc(Br)c1,-6,-3.4,6,10,-11,-5,2274
Cc1ccc(S(=O)(=O)N2C(=O)CCC2C(N)=O)cc1 (configuration not stated),-19,-3.1,-11,0,-6,6,3197
CSCCC(NC(=O)COc1ccccc1)C(=O)OCC(=O)c1ccccc1 (configuration not stated),-11,4.9,6,5,-4,-1,?
COc1cccc(S(=O)(=O)N2CCN(c3ccccc3F)CC2)c1,-28,4.1,0,10,5,0,8737
CC1CC[C@]2(O1)OC(CCO)CC(O)C2O (some centres not stated),.,2.3&2.5&6.0&-1.0&-1.7&2.1&3.6,9&5&13&3&-2&4&-13,3&7&10&14&8&6&-6,-3&-2&5&-1&-7&-9&-5,.,.
C=CCc1ccc(OCC(O)CN2CCN(Cc3ccc(Cl)cc3)CC2)c(OC)c1 (configuration not stated),-15,2.2,7,4,-6,4,2066
O=C(Nc1ccccc1)C1=C[C@@H](c2ccc(Br)cc2)C[C@@H](OCc2ccc(CO)cc2)O1,-15,.,.,.,.,-10,2961
CCNC(=O)C1CC(=O)N(Cc2ccc3c(c2)OCO3)C(=Nc2ccc(F)cc2)S1 (configuration not stated),-17,1.6,15,-2,-1,6,5514
CCOC(=O)c1ccn(CSc2c(F)c(F)cc(F)c2F)n1,-24,2.3,6,-13,2,.,8874
CC1CCCCC1NC(=O)COC(=O)c1ccccc1NC(=O)c1ccco1 (configuration not stated),-24,-1.1,.,.,-3,-15,4186
COc1cc(NS(=O)(=O)c2ccc(N/C=C(\C#N)c3nc4cc(Cl)ccc4o3)cc2)nc(OC)n1,-42,-6.4,-2,-3,-17,-18,2964
COc1ccc(NC(=O)CN(C)C(=O)c2ccc(N3CCOCC3)c([N+](=O)[O-])c2)cc1,-24,5.1,13,0,10,-2,5812
COc1ccc(Cn2nc(C)n(N(C)c3ncc(C(F)(F)F)cc3Cl)c2=O)cc1,-14,3.6,10,9,8,5,3057
CCOC(=O)c1sc(NC(=O)Cn2nnc3sc4c(c3c2=O)CCCC4)nc1C,-17,11,9,2,14,-12,9332

Molecule,PrP UTR inh,RN4220 kill,Mtb hypoxia rep,Mtb hypoxia rep growth,Sa ugtP lethal,BJeLR lethal,Autofluor counter
COc1ccccc1NC(=S)N(Cc1ccc(Cl)cc1)CC1CCC(C(=O)O)CC1 (configuration not stated),-79,3.2,5,4,-1,9,4541
O=C(O)CN1CCN(Cc2ccc(F)cc2)C1=O,-15,2.1,3,-4,4,10,3799
Cc1cc(C)cc(-n2ccnc2SCC(=O)O)c1,-16,2.1,-2,14,1,-23,4006
O=C(NCCOc1ccccc1)c1cc(S(=O)(=O)N2CCOCC2)ccc1F,-5,-1.2,-12,2,-8,4,4246
COc1ccc(C(C)(C)C)cc1NC(=O)c1ccccc1-n1cnnn1,8,0.4,-10,3,-3,.,3904
CCN(CC)S(=O)(=O)c1ccc(NC(=O)c2ccc(Sc3nncn3C)c([N+](=O)[O-])c2)cc1,-7,5.3,-2,1,7,-3,1963
CN1CCN(C(=S)SCC(=O)N2CCCc3ccccc32)CC1,-10,0.6,8,2,10,-2,4451
Cc1ccnc(N2CCC(C(=O)NNC(=O)c3ccccc3)CC2)n1,19,3.0,1,4,-7,3,10537
NC(=O)CCN1CCN(C(=O)c2ccc3nc(Cc4cccc(Cl)c4)oc3c2)CC1,-16,-3.2,-8,2,-7,-3,5283
O=C(COC(=O)/C=C/c1ccc2c(c1)OCO2)Nc1ccccc1,-17,5.9,2,-5,12,4,4485
COC(=O)CC1COc2ccccc2N1C(=O)c1ccc(OC)cc1 (configuration not stated),-2,2.9,6,0,4,-20,21654*
O=S(=O)(c1ccc(Cl)cc1)N1CN2CCN(C2)C1,-3,1.3,4,9,-6,-6,9462
COc1cccc(C(=O)NNC(=O)CCC(=O)O)c1,-1,1.1,10,-5,-2,-13,3977
COc1cc([N+](=O)[O-])ccc1NC(=S)NCc1ccccn1,-7,5.4,21,1,-1,3,2059
Cc1ccc(O)c(C(=O)c2cnc3c(c2)c(C)nn3-c2ccccc2)c1,-25,5.6,-3,0,25,0,2165

Molecule,PrP UTR inh,RN4220 kill,Mtb hypoxia rep,Mtb hypoxia rep growth,Sa ugtP lethal,BJeLR lethal,Autofluor counter
S=C(NCc1ccccc1)NCc1ccccc1,-21,-0.4,12,12,3,-2,12428
CCC(=O)Nc1cccc(C(=O)/C=C/c2ccccc2)c1,46,28,1,4,-1,49,2584
CCc1ccccc1NC(=O)CN(C)C(=O)Cn1cc(C(F)(F)F)cc(Cl)c1=O,-27,-0.4,3,16,7,1,4059
CC(C)NC(=S)NN=CC1=CCC2CC1C2(C)C (configuration not stated),.,3.4,11,4,3,.,.
COc1ccc([C@@H]2[C@@H]3C(=O)N(C(C)(C)C)C(=O)[C@@H]3[C@]3(Cc4ccccc4)C(=O)N(c4ccccc4)C(=O)N23)cc1,-20,.,.,.,.,0,4140
O=C(CN1CCCCCC1)Nc1ccc(Br)cc1,-16,-0.6,22,26,2,-6,11034
O=C(C1=C[C@@H](C2CC2)C[C@@H](OCCCCO)O1)N1CCOCC1,-8,.,.,.,.,-4,3891
O=C(N/N=C(/c1ccccc1)c1ccncc1)c1ccc2c(c1)OCO2,-5,.,.,.,.,-5,8707
CC1CCN(c2ccc(C(=O)NCCc3ccccc3)cn2)CC1,-21,-0.1,-1,-2,8,2,5562
O=C(NCCn1cc(SCC(=O)N2CCOCC2)c2ccccc21)c1c(F)cccc1F,-36,-12,11,10,-1,-2,5788
CCOc1ccc(C(=O)N2CCN(c3cccc(C)c3C)CC2)cc1,-5,2.7,2,8,9,2,17197*
CS(=O)(=O)N(CC(=O)NCC1CCCO1)c1cccc(Cl)c1 (configuration not stated),-20,6.3,0,6,7,-2,3381
Cc1ccc(C(=O)NC(=S)N(C)C2CCCCC2)cc1Br,-18,.,.,.,.,1,6592
Nc1ncn(C23CC4CC(CC(C4)C2)C3)n1,-24,-1.5,3,-4,6,-14,10047
O=C(N/N=C/c1ccncc1)C1C2CCCCCCC21 (configuration not stated),-6,.,.,.,.,-1,2449

Molecule,PrP UTR inh,RN4220 kill,Mtb hypoxia rep,Mtb hypoxia rep growth,Sa ugtP lethal,BJeLR lethal,Autofluor counter
N#Cc1c(-c2ccccc2)nc(SCC(=O)N2c3ccccc3Sc3ccccc32)[nH]c1=O,-26,-2.1,4,-3,24,2,4115
COc1ccccc1Sc1ccccc1CC(C)N (configuration not stated),-4,.,.,.,.,-11,2486
COc1ccc2c(c1)[nH]c1c(=O)n(/N=C/c3ccc(OC)c(CN4CCCC4)c3)cnc12,1,.,.,.,.,-10,5130
O=C1CC(c2ccccc2)NC(=O)N1 (configuration not stated),-35,-1.4,.,.,9,10,4875
CC12C=CC(=O)C=C1CCC1C3CCC(O)(C(=O)CO)C3(C)CC3OC312 (configuration not stated),-10,4.7,7,1,11,1,4867
C=COCCCNc1ncnc2sc(-c3ccccc3)cc12,-6,1.6,8,9,-13,-2,4219
CC(OC(=O)c1cccc(S(=O)(=O)N2CCCCC2)c1)C(=O)NCC1CCCCC1 (configuration not stated),-15,-0.8,14,2,2,.,6424
O=C(NC1CCCCC1)c1ccc2c(=O)n(CC3CCCO3)c(=O)[nH]c2c1 (configuration not stated),-22,2.8,6,4,2,-12,4157
O=C(Nc1ncc(Cc2ccccc2)s1)C1=NCCN1,-7,0.9,13,-4,1,6,3266
Cc1c(C(=O)N2CCOCC2)oc2c1C(=O)CC(C)(C)C2,-5,0.1,4,2,4,-2,8234
CC(C)CC(NC(=O)OC(C)(C)C)c1cn(C(Cc2ccc(O)cc2)C(=O)N2CCN(C(=O)OC(C)(C)C)CC2)nn1 (configuration not stated),.,2.5,-3,5,9,.,.
COc1cc(OC)nc(N=CN(C)C)n1,.,1.2,5,9,17,.,.
CCOc1ccccc1Nc1cc(C)nc2nc(C)nn12,-5,4.9,.,.,10,4,5941
CCOc1cc(/C=N/NC(=O)CNc2cccc(C)c2)ccc1OC(=O)c1ccccc1,-10,.,.,.,.,-14,2817
O=C(NNS(=O)(=O)c1ccc(F)cc1)c1ccccc1O,-8,2.3,-7,-1,3,1,4252

Only Mtb hypoxia rep growth, for two of the compounds above:
SMILES | Mtb hypoxia rep growth
O=C(NNS(=O)(=O)c1ccc(F)cc1)c1ccccc1O | -1
CC(OC(=O)c1cccc(S(=O)(=O)N2CCCCC2)c1)C(=O)NCC1CCCCC1 (configuration not stated) | 2

Next records.
Molecule,PrP UTR inh,RN4220 kill,Mtb hypoxia rep,Mtb hypoxia rep growth,Sa ugtP lethal,BJeLR lethal,Autofluor counter
CC1(C)Cc2c(C#N)c(NCCO)nc(-c3ccco3)c2CO1,-19,4.1,11,7,7,-4,4588
Nc1nc(NCc2ccccc2)nc(-c2ccccc2)n1,-23,5.7,1,8,-8,3,9453
COc1ccc(OCC(=O)N2CCN(Cc3nc4cc([N+](=O)[O-])ccc4n3C)CC2)cc1,-8,6.2,4,2,-2,-1,2233
CCN1C[C@]2(C)CC[C@H](OC)C34C2[C@H](OC(C)=O)[C@@]2(OCO[C@@]25C[C@H](OC)[C@H]2C[C@]3(O)C5[C@H]2OC)[C@@H]14,.,5.5,-2,-3,4,.,.
Cc1ccc(-c2nnc3ccc(SCC(=O)NCc4ccco4)nn23)cc1,-16,8.5,4,1,20,16,8106
O=C(Nc1ccccc1Cl)c1cccc(NC(=O)c2cccs2)c1,-10,6.5,12,4,11,11,7760
CC(=O)c1sc(NN=C2CC3CCC2(C)C3(C)C)nc1C (configuration not stated),.,4.7,4,-4,2,.,.
COc1ccc(CN2CCN(c3ccccn3)CC2)c(OC)c1,-23,3.3,17,19,2,-2,5796
CCCNC(=O)CC(C)=NNC(=O)COc1ccc(C)cc1Br,.,6.0,8,7,-1,.,.
CC(=NNS(=O)(=O)c1ccc(C)cc1)c1ccc(C)o1,.,-4.3,-5,-5,1,.,.
Cc1nnc(C)n1N=Cc1cc(Br)ccc1O,.,-8.7,17,0,-1,.,.
O=C(CCN1C(=O)C2C3C=CC(C4CC34)C2C1=O)Oc1cccc2cccnc12 (configuration not stated),-17,100*,-2,2,98*,6,7885
CCN1C(=O)N[C@@H](c2cccc(C(F)(F)F)c2)[C@@H](C(=O)OC)[C@H]1C,-25,.,.,.,.,-2,3623
CC(CNC(=O)CN1C(=O)NC2(CCCCC2C)C1=O)c1ccccc1 (configuration not stated),-5,3.9,13,5,6,.,5558
CCN(CC)C(=O)Cn1cc(S(=O)(=O)CC(=O)Nc2ccc3c(c2)OCCO3)c2ccccc21,-14,3.7,5,1,3,0,4350
